From PubChem
KCNQ2 block = KCNQ2 potassium channel inhibitors, primary screen, cell-based, CHO-K1, FluxOR thallium flux, B-score (AID 2156) | actives 1.1% (n = 310,000) | Potassium voltage-gated channel subfamily KQT member 2 (Rattus norvegicus), O88943 | B-score at 10 µM | 20 min; active compounds read low; only compounds with negative scores are shown here; some inactives read as strong as hits;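 active = fluorescence ratio B-score at most minus 3 library SDs, with starting brightness B-score within 2 library SDs, cut at about -5.5 in these data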
Target sequence (O88943 whole entry, looked up): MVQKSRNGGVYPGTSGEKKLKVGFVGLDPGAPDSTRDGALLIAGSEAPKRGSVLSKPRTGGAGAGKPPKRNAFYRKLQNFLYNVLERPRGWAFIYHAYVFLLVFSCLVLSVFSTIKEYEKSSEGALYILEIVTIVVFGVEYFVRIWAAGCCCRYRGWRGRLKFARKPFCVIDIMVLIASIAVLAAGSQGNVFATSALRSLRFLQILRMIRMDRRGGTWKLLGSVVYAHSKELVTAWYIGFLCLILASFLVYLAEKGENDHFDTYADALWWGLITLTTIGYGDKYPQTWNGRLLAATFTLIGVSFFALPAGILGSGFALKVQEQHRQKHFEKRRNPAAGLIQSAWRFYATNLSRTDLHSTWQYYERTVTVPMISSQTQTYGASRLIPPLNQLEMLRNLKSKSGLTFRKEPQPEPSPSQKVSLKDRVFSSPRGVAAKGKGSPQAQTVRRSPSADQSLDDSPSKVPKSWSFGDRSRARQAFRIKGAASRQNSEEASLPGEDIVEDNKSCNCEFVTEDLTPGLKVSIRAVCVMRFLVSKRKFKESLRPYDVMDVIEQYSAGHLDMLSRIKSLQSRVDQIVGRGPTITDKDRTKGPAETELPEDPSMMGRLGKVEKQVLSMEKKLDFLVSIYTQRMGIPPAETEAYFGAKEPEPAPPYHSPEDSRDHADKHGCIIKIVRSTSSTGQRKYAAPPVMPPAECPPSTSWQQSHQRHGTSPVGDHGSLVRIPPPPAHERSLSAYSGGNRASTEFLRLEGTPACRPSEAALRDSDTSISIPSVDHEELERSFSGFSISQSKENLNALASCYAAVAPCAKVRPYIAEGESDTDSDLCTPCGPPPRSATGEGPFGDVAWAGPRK
KCNQ2 block baseline = further read-out of KCNQ2 block, marked with its call; B-score; measured here: initial fluorescence intensity artifact check;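 brightness before thallium and not channel activity; 0 = typical well and far values either way flag optical interference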
Active calls of the source: *; i = inactive. Not all compounds are listed; the hit share may differ from the screen's.

canonical_smiles	KCNQ2 block	KCNQ2 block baseline
CNC(=O)c1c(NC(=O)C2=COCCO2)sc2c1CCCC2	i	3.15
COc1ccc(C(=O)OCC(=O)NCC2CCCO2)cc1S(=O)(=O)N1CCCc2ccccc21 (stereo not drawn)	i	0.66
CCOC(=O)c1sc2ccccc2c1OC(=O)c1ccccc1OC	i	0.16
O=C(NCCO)Nc1ccc2nsnc2c1	i	0.15
CSCCC1NC(=O)N(CC(=O)Nc2c(C(C)C)cccc2C(C)C)C1=O (stereo not drawn)	i	0.14
C=CCn1c(SCC(=O)NCc2ccco2)nnc1C1CCCCC1	i	2.08
O=C(CN1CCSCC1)N/N=C/c1ccc(Cl)cc1	i	0.16
Clc1ccc(N2CCOCC2)nn1	i	0.03
Cc1cc(-n2c(C)c3c(C)nnc(C)c3c2C)ccc1N	i	-0.07
O=C(O)c1nn(CCOc2c(Cl)cccc2Cl)c(=O)c2ccccc12	i	-2.31
C=CCN(CC=C)Cc1nc(N)nc(Nc2ccccc2C)n1	i	-0.06
O=C(CCC1CCCN(C(=O)c2ccsc2)C1)NCc1ccc(F)c(F)c1 (stereo not drawn)	i	-0.92
CC(C)[C@H](NC(=O)C1(c2ccccc2)CCN(C(=O)OC(C)(C)C)CC1)C(=O)O	i	0.13
Cc1cccc(/C=N/n2c(C)nnc2C)c1	i	1.62
CCc1cc(=O)[nH]c(SCCc2ccccc2)n1	i	1.32

5 compounds from above, ordered by formula weight, ascending.
canonical_smiles	KCNQ2 block	KCNQ2 block baseline
Clc1ccc(N2CCOCC2)nn1	i	0.03
CCc1cc(=O)[nH]c(SCCc2ccccc2)n1	i	1.32
O=C(CN1CCSCC1)N/N=C/c1ccc(Cl)cc1	i	0.16
O=C(O)c1nn(CCOc2c(Cl)cccc2Cl)c(=O)c2ccccc12	i	-2.31
CSCCC1NC(=O)N(CC(=O)Nc2c(C(C)C)cccc2C(C)C)C1=O (stereo not drawn)	i	0.14

Whole records as entered above.
Profile of `CC(C)[C@H](NC(=O)C1(c2ccccc2)CCN(C(=O)OC(C)(C)C)CC1)C(=O)O` → KCNQ2 block: i; KCNQ2 block baseline: 0.13
Profile of `Clc1ccc(N2CCOCC2)nn1` → KCNQ2 block: i; KCNQ2 block baseline: 0.03
Profile of `Cc1cccc(/C=N/n2c(C)nnc2C)c1` → KCNQ2 block: i; KCNQ2 block baseline: 1.62

Additional compounds:
canonical_smiles	KCNQ2 block	KCNQ2 block baseline
Cc1cccc(N=c2oc3cc(O)ccc3cc2C(N)=O)c1	i	-1.95
S=c1nc(-c2cccc(Cl)c2)[nH][nH]1	i	0.63
Nc1nc(-c2ccco2)nn1C(=O)c1cccnc1	i	1.65
C=CCc1cccc(/C=N/c2ncn[nH]2)c1O	i	2.03
CC(Cn1nnc2ccccc21)C(=O)O (stereo not drawn)	i	-0.02
COc1ccc(OCc2nn[nH]n2)cc1	i	1.31
CCOC(=O)C(C)Oc1ccccc1C1NC(=O)NC(C)=C1C(=O)Nc1ccc(C)c(C)c1 (stereo not drawn)	i	-0.67
Cc1cccc(N2C(=O)C3CCCN3C2=S)c1 (stereo not drawn)	i	-1.4
COc1ccc(-n2c(=S)[nH]c3cc(C(=O)Nc4ccccc4OC)ccc3c2=O)c(OC)c1	i	-4.17
N#CCCN(C(=S)NC(=O)c1ccco1)c1ccccc1F	i	-2.47
CC(C)(C)c1ccccc1NC(=O)Cn1c(=O)cnc2ccccc21	i	1.16
COc1cc(C)nc(Oc2ccc(=O)n(C)n2)n1	i	0.96
COc1ccc(C2=CC(c3sccc3C)n3nnnc3N2)cc1 (stereo not drawn)	i	0.4
CC1(C)CN(C(=S)Nc2ccc(F)cc2F)C1=O	i	-0.25
COc1ccc(CNc2ccc(Br)cc2)cc1	i	2.53
O=C(Nc1ccccc1N1CCOCC1)c1ccccc1NS(=O)(=O)c1ccc(F)cc1	i	-2.45
CC(C)(C)C(=O)C1=C(O)C(=O)N(c2ccccc2)C1c1ccccc1 (stereo not drawn)	i	0.14
Cc1c(OCc2nn[nH]n2)ccc2c(-c3ccccc3)cc(=O)oc12	i	0.32
CCCc1ccc(-c2c(C)sc(NC(=O)c3ccnn3C)c2C#N)cc1	i	0.06
CC1CCCN(S(=O)(=O)c2ccc3c(c2)C(C)(C)C(=O)N3C)C1 (stereo not drawn)	i	1.19
Cc1ccc(C(=O)N/C(=C/c2ccco2)C(=O)N2CCC(C)CC2)cc1	i	1.25
COc1ccc(NC(=O)CCC(=O)N(Cc2ccc(OC)c(OC)c2)c2nccs2)c(OC)c1	i	-1.85
Cc1cc(C)nc(NC(=O)c2cccc([N+](=O)[O-])c2C)n1	i	3.27
Cc1c(Cl)cccc1NC(=S)NNS(=O)(=O)c1ccc([N+](=O)[O-])cc1	i	-1.74
Cc1ccc(-c2nsc(SCC(=O)Nc3ccc4c(c3)OCO4)n2)cc1	i	-0.54
Cc1cc(C)c(OCCN2CCCC2)c(Cl)c1	i	1.61
CC(CC(=O)Nc1ccc(Cl)c([N+](=O)[O-])c1)c1ccccc1 (stereo not drawn)	i	-1.32
O=c1c2c(-c3ccc(Cl)cc3)csc2nc2n1CCC2	i	-1.25
CCOc1cc(NC(=S)NCC2CCCO2)c(OCC)cc1NC(=O)c1cccc(F)c1 (stereo not drawn)	i	1.07
O=C(O)CCC(=O)NC1CCCCC1	i	1.34
COc1ccc(NC(=O)CN(C)C(=O)c2cccc(S(=O)(=O)Nc3ccccc3Cl)c2)cc1	i	0.83
Nn1c(Cc2ccccc2F)nnc1SCCOc1ccc(Cl)cc1	i	0.8
CCOCCCNC(=O)C(NC(=O)C1CCC(=O)N1)c1ccc(C)cc1 (stereo not drawn)	i	0.42
CCC(C)NS(=O)(=O)c1ccc(S(=O)(=O)Nc2cc3c(cc2C(C)=O)OCO3)cc1 (stereo not drawn)	i	-0.03
COc1cc(CNn2cn[nH]c2=S)cc(Cl)c1OCc1ccccc1	i	-0.48
CCSC1=NN2CCS(=O)(=O)N=C2S1	i	0.17
COc1ccc(S(=O)(=O)NCc2ccc(C(=O)N(C)Cc3ccco3)cc2)cc1	i	0.11
O=C(COC(=O)Cc1n[nH]c(=O)c2ccccc12)Nc1ccc(Cl)cc1F	i	1.91
COc1ccc(Oc2c(Cl)cnn(-c3ccccc3)c2=O)cc1	i	1.06
NNS(=O)(=O)c1ccc(Cc2ncc(C(F)(F)F)cc2Cl)s1	i	-0.28
N#C/C(C(=O)Oc1ccccc1)=C1\C=Cc2ccccc2N1	i	2.08
Cc1[nH]c2ccccc2c1Cc1n[nH]c(=S)o1	i	2.68
O=C1c2ccccc2S(=O)(=O)c2cc(C(=O)N3CCCC3)ccc21	i	3.57
O=C(CSc1nc2ccc(Nc3nc(N4CCOCC4)nc(N4CCOCC4)n3)cc2s1)NCc1ccco1	i	-0.44
Cc1cccc(N2CCN(c3cccc(C)c3)C2c2cccnc2)c1	i	0.84
COCCCNC(=O)CSc1ccsc1[N+](=O)[O-]	i	-2.03
O=C(OCC(=O)C12CC3CC(CC(C3)C1)C2)c1ccc(O)cc1O	i	1.56
COc1cccc(-c2nn(-c3ccccc3)cc2/C=C\C(=O)c2cccs2)c1	i	-0.02
CCC(C)N1CC(=O)N2Cc3[nH]c4ccccc4c3C[C@H]2C1=O (stereo partly drawn)	i	1.75
COc1ccc(-c2cc([C@H]3[C@@H]4C=CCC[C@@]4(C)C(=O)N3Cc3ccccc3)ccc2F)cc1OC	i	1.09
CCC(=O)Nc1c(S(=O)(=O)c2ccc(C)cc2)c2nc3ccccc3nc2n1C(C)c1ccccc1 (stereo not drawn)	i	2.57
Cc1cccc(N2CCN(Cc3cnc(Cl)s3)CC2C)c1 (stereo not drawn)	i	0.74
O=C(COc1ccc(S(=O)(=O)N2CCOCC2)cc1)NCCc1ccccc1	i	-0.9
Cn1ccnc1SCc1cn2cc(Br)ccc2n1	i	0.06
CC1CCCC(C)N1C(=O)COC(=O)c1ccc2c(c1)OCO2 (stereo not drawn)	i	-0.88
CC(C)C[C@H]1C(=O)N2CCC[C@H]2[C@]2(O)O[C@](NC(=O)C3C=C4c5cccc6[nH]c(Br)c(c56)C[C@H]4N(C)C3)(C(C)C)C(=O)N12 (stereo partly drawn)	i	-1.12
COCCN(C(=O)Cc1coc2cc(C)c(C)cc12)c1c(N)n(Cc2ccccc2)c(=O)[nH]c1=O	i	2.67
CN1c2cccc3cccc(c23)N(C)C1c1cccs1	i	-0.01
Cc1ccc(S(=O)(=O)Nc2ccccc2-c2ccccc2)cc1	i	1.15
COc1ccc(N2C(=O)c3ccccc3NC23CCCCC3)cc1	i	2.14

Compound: Cc1cc(C(=O)CSc2nc(N)cc(N)n2)c(C)n1CCc1ccc(F)cc1
  KCNQ2 block: i; KCNQ2 block baseline: 0.57

Compound: O=C(NCc1nc2ccccc2[nH]1)C1=C[C@@H](c2ccc3c(c2)OCO3)C[C@@H](OCc2ccc(CO)cc2)O1
  KCNQ2 block: i; KCNQ2 block baseline: -0.31

Compound: CCOC(=O)c1ccc(N2CCOCC2)c(NC(=O)COCC(=O)O)c1
  KCNQ2 block: i; KCNQ2 block baseline: -0.62

Compound: CCOC(=O)c1ccc(NC(=S)N2CCSC2c2ccc(Cl)cc2)cc1 (stereo not drawn)
  KCNQ2 block: i; KCNQ2 block baseline: 0.1

Compound: Cc1cccc(NCc2cc(Cl)ccc2O)n1
  KCNQ2 block: i; KCNQ2 block baseline: 1.52

Compound: CCOC(=O)c1nnc(-c2ccccc2)nc1Oc1ccc(Cl)cc1
  KCNQ2 block: i; KCNQ2 block baseline: -2.05

Compound: CC1CCN(CC(=O)N2CCCc3c2c(=O)oc2ccc(OCc4ccccc4)cc32)CC1
  KCNQ2 block: i; KCNQ2 block baseline: 1.19

Compound: O=C(Nc1nc2c(s1)CCCC2)Oc1ccccc1
  KCNQ2 block: i; KCNQ2 block baseline: -0.04

Compound: CCN(CCCNC(=O)CNC(=O)c1nn(-c2ccc(OC)cc2OC)c(=O)c2ccccc12)c1cccc(C)c1
  KCNQ2 block: i; KCNQ2 block baseline: 0.67

Compound: Cc1cccc(OCCNc2ccc(C(F)(F)F)cc2[N+](=O)[O-])c1
  KCNQ2 block: i; KCNQ2 block baseline: 0.06

Compound: CC1(c2ccc3ccccc3c2)NC(=O)NC1=O (stereo not drawn)
  KCNQ2 block: i; KCNQ2 block baseline: -0.08

Compound: COc1cc(/C=N/NC(=O)C2C3CCCCC32C)cc(Br)c1O (stereo not drawn)
  KCNQ2 block: i; KCNQ2 block baseline: 0.05

Compound: CCOC(=O)C(=O)Nc1cc(C)nn1-c1nc2ccccc2[nH]1
  KCNQ2 block: i; KCNQ2 block baseline: -0.63

Compound: CN(C)CCCNC(=O)/C(=C\c1ccc(-c2ccc(Br)cc2)o1)NC(=O)c1ccccc1
  KCNQ2 block: i; KCNQ2 block baseline: -1.07

Compound: Cc1cccc(OCc2nnc(SCn3nnc4ccccc4c3=O)o2)c1
  KCNQ2 block: i; KCNQ2 block baseline: 0.1

Compound: COCCCN1C(=O)/C(=C/c2ccc(CNS(=O)(=O)c3ccccc3)o2)C(C(=O)OC)=C1C
  KCNQ2 block: i; KCNQ2 block baseline: -0.48

Compound: COc1cc(/C(C)=C/c2ccccc2)c2c(c1)oc1ccccc12
  KCNQ2 block: i; KCNQ2 block baseline: -0.05

Compound: CCC(=O)c1ccc(OCC(=O)OCC(=O)NC2CCCCCCC2)cc1
  KCNQ2 block: i; KCNQ2 block baseline: -2.9

Compound: CCOC(=O)c1ccc(NC(=S)NCCCN2CCOCC2)cc1
  KCNQ2 block: i; KCNQ2 block baseline: 1.33

Compound: C=CCn1c(SCC(=O)Nc2ccc(F)cc2)nnc1-c1cnccn1
  KCNQ2 block: i; KCNQ2 block baseline: -0.08

Compound: O=C(C1CC1)N1CCc2[nH]c3ccccc3c2C1
  KCNQ2 block: i; KCNQ2 block baseline: 3.35

Compound: COc1ccc(Cn2cccc(NC(=O)Nc3ccc(F)cc3)c2=O)cc1
  KCNQ2 block: i; KCNQ2 block baseline: -3.52

Compound: Cc1cc(OC(=O)c2ccc3ccccc3c2)c([N+](=O)[O-])c(=O)[nH]1
  KCNQ2 block: i; KCNQ2 block baseline: 0.59

Compound: O=C(Nc1nccs1)c1ccc2nccnc2c1
  KCNQ2 block: i; KCNQ2 block baseline: 3.32

Compound: O=c1[nH]n2c(=O)c3c([nH]c2c1N=Nc1cccc(Cl)c1)CCCC3
  KCNQ2 block: i; KCNQ2 block baseline: 2.11

Compound: CN(C)S(=O)(=O)c1cc(NC(=O)Cn2ccsc2=N)ccc1Cl
  KCNQ2 block: i; KCNQ2 block baseline: -0.64

Compound: CC(C)c1ccc(C2CC(c3ccc(Br)cc3)=NN2C(N)=S)cc1 (stereo not drawn)
  KCNQ2 block: i; KCNQ2 block baseline: 0.24

Compound: Cc1ccc2nc(C)c(CN3CCN(c4ccc([N+](=O)[O-])cc4Cl)CC3)n2c1
  KCNQ2 block: i; KCNQ2 block baseline: 1.99

Compound: Cc1nn(-c2ccccc2)c(N2CCCC2)c1/C=N/NC(=O)c1ccccc1O
  KCNQ2 block: i; KCNQ2 block baseline: -0.71

Compound: O=C1CC(N2CCN(c3ccccc3)CC2)C(=O)N1c1ccc(Cl)cc1 (stereo not drawn)
  KCNQ2 block: i; KCNQ2 block baseline: -2.48

Compound: CC12CCC(C(=O)Nc3ccccc3Cl)([C@H](Br)C1=O)C2(C)C (stereo partly drawn)
  KCNQ2 block: i; KCNQ2 block baseline: 0.18

Compound: O=[N+]([O-])c1ccc(N2CCN(c3ccccc3F)CC2)c(S(=O)(=O)N2CCOCC2)c1
  KCNQ2 block: i; KCNQ2 block baseline: -0.63

Compound: CCOc1ccccc1C(=O)Nc1cc(Cl)ccc1O
  KCNQ2 block: i; KCNQ2 block baseline: 0.47

Compound: N#C/C(=C\c1cccc([N+](=O)[O-])c1)C(=O)NCC1CCCO1 (stereo not drawn)
  KCNQ2 block: i; KCNQ2 block baseline: -0.6

Compound: OCCC1CN(CCCn2cccn2)CCN1C1CCCCC1 (stereo not drawn)
  KCNQ2 block: i; KCNQ2 block baseline: -0.7

Compound: Cc1cccc(/C=N/NC(=O)c2ccc(NC(=O)c3cccc(Cl)c3)cc2)n1
  KCNQ2 block: i; KCNQ2 block baseline: 0.29
